Screening data: PubChem BioAssay, Broad Institute
A1 inhib = blocks A1 activity. caspase activation, % (test concentration not listed). MEF A1-2A-BIM cells, caspase-Glo luminescence, 3 h; percent of clofoctol signal, DMSO as zero. actives 0.51% (n = 21,000). AID 2241;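 active = most replicate scores above 10, or exactly half above 10 with mean activity above 10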;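 note: effector caspase 3 and 7 activity cleaving a DEVD luciferin substrate; 50 nL library stock added to about 30 µL; numbers are from one replicate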
BJeLR viability = compounds reducing viability of BJeLR cells | BJeLR fibroblasts viability, CellTiterGlo ATP luminescence, 48 h; HRASV12, hTERT and SV40 LT/ST transformed | AID 2275 | viability loss activity score, % (test concentration not listed) | actives 0.64% (n = 30,000); in the data active = viability loss activity score above about 50%; about a fifth of its hits are not listed in these tables;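 note: higher score means fewer live cells and less ATP luminescence; stock transfer was 50 or 100 nL into about 30 µL; 0% = vehicle wells and 100% = a reference killing control; one replicate is shown; the record names a cut of 85%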
* = called active by the depositor; x = not tested or not shown. An excerpt, so the mix of outcomes need not match the whole.

structure	A1 inhib	BJeLR viability
C[C@@H]1CN([C@@H](C)CO)C(=O)c2cccc(NS(=O)(=O)c3cn(C)cn3)c2O[C@@H]1CN(C)Cc1ccncc1	x	1.5
CCCOc1ccc(Br)cc1/C=C1\NC(=S)NC1=O	2.4	-1.5
C[C@@H]1CN([C@H](C)CO)C(=O)c2cc(NC(=O)C3CC3)ccc2O[C@H]1CN(C)C(=O)Nc1ccc2c(c1)OCO2	-0.9	-2.3
NC(=O)c1oc2ccccc2c1NC(=O)CSc1ccccc1	1.2	-15
C[C@H](CO)N1C[C@H](C)[C@@H](CN(C)C)Oc2ccc(NC(=O)C3CC3)cc2C1=O	-0.2	2.9
CNC[C@H]1Oc2ccc(NC(=O)Nc3ccc(OC)cc3)cc2C(=O)N([C@H](C)CO)C[C@H]1C	-0.8	3.0
Cc1onc(-c2ccccc2)c1CNS(=O)(=O)c1cccc(Cl)c1	0.2	-0.7
C[C@@H]1CN([C@H](C)CO)C(=O)c2cc(NC(=O)CCN3CCOCC3)ccc2O[C@@H]1CN(C)Cc1ccc(-c2ccccc2)cc1	0.2	-2.6

Continuation:
structure	A1 inhib	BJeLR viability
C[C@@H]1CN([C@H](C)CO)C(=O)c2cc(NS(=O)(=O)c3ccccc3)ccc2O[C@@H]1CN(C)Cc1ccc(C(F)(F)F)cc1	0.6	3.1
Cc1noc(C)c1NC(=O)N(C)C[C@H]1Oc2ccc(NC(=O)Nc3ccc(C(F)(F)F)cc3)cc2C(=O)N([C@@H](C)CO)C[C@@H]1C	0.3	1.2
CCOc1ccc(NC(=O)CN2CCCc3ccccc32)cc1	1.2	-4.2
Cc1cccc(NC(=O)c2cnn(-c3ccccc3)c2NC(=O)c2ccco2)c1	-1.0	3.1
C[C@@H]1CN([C@H](C)CO)C(=O)c2cccc(NC(=O)c3nc4ccccc4s3)c2O[C@@H]1CN(C)Cc1ccc(C(=O)O)cc1	x	2.7
COc1ccc(NC(=O)Nc2ccc3c(c2)C(=O)N([C@H](C)CO)C[C@H](C)[C@@H](CN(C)C(=O)Nc2ccc(C(F)(F)F)cc2)O3)cc1	0.7	-1.5
C[C@H](CO)N1C[C@H](C)[C@@H](CN(C)S(=O)(=O)c2cccs2)Oc2ccc(N(C)C)cc2C1=O	-0.6	-0.8
COc1ccc(CNC(=O)c2cc(=O)[nH]c3ccc(S(=O)(=O)N4CCCC4)cc23)cc1	x	-6.6

Some values from the results shown:
Under BJeLR viability, `C[C@@H]1CN([C@H](C)CO)C(=O)c2cccc(NC(=O)c3nc4ccccc4s3)c2O[C@@H]1CN(C)Cc1ccc(C(=O)O)cc1` shows 2.7
Under A1 inhib, `C[C@@H]1CN([C@H](C)CO)C(=O)c2cc(NC(=O)C3CC3)ccc2O[C@H]1CN(C)C(=O)Nc1ccc2c(c1)OCO2` shows -0.9
Under BJeLR viability, `Cc1noc(C)c1NC(=O)N(C)C[C@H]1Oc2ccc(NC(=O)Nc3ccc(C(F)(F)F)cc3)cc2C(=O)N([C@@H](C)CO)C[C@@H]1C` shows 1.2
Under BJeLR viability, `CCOc1ccc(NC(=O)CN2CCCc3ccccc32)cc1` shows -4.2
Under A1 inhib, `C[C@@H]1CN([C@H](C)CO)C(=O)c2cc(NS(=O)(=O)c3ccccc3)ccc2O[C@@H]1CN(C)Cc1ccc(C(F)(F)F)cc1` shows 0.6
Under BJeLR viability, `C[C@@H]1CN([C@@H](C)CO)C(=O)c2cccc(NS(=O)(=O)c3cn(C)cn3)c2O[C@@H]1CN(C)Cc1ccncc1` shows 1.5

Additional entries
structure	A1 inhib	BJeLR viability
Cc1noc(C)c1NC(=O)Nc1cccc2c1O[C@H](CN(C)S(=O)(=O)c1ccc(F)cc1)[C@H](C)CN([C@@H](C)CO)C2=O	x	-0.6
NC(=NC(=O)c1ccc(OCC(F)(F)F)nc1)c1ccc(C(F)(F)F)cc1	-1.0	1.9
C[C@H]1CN([C@@H](C)CO)C(=O)c2cccc(NC(=O)Nc3cccc4ccccc34)c2O[C@@H]1CN(C)C(=O)Nc1ccc(F)cc1	x	-2.4
COc1cc(OC)c(NC(=O)c2oc3ccc4c(c3c2C)C(=O)CC2(CCCC2)O4)cc1Cl	0.4	-1.8
C[C@H](CO)N1C[C@H](C)[C@@H](CN(C)S(=O)(=O)c2ccccc2)Oc2ccc(NC(=O)CCCCCC(=O)Nc3ccccc3N)cc2C1=O	x	-7.9
COc1ccc(S(=O)(=O)Nc2ccc3c(c2)C(=O)N([C@H](C)CO)C[C@@H](C)[C@@H](CN(C)S(C)(=O)=O)O3)cc1	-0.6	4.4
O=C(CC(C(=O)N1CCc2ccccc21)C(=O)N1CCc2ccccc21)c1ccccc1	-0.5	8.0
C[C@H]1CN([C@@H](C)CO)C(=O)c2cccc(NC(=O)Nc3ccccc3)c2O[C@@H]1CN(C)C(=O)Nc1ccc2c(c1)OCO2	x	2.0

Other structures:
structure	A1 inhib	BJeLR viability
CC1(C)C[C@H]2C3=CCC4[C@@]5(C)CC[C@H](O[C@@H]6O[C@H](CO)[C@@H](O)[C@H](O)[C@H]6O)C(C)(C)C5CC[C@@]4(C)[C@]3(C)CC[C@@]2(C(=O)O[C@@H]2O[C@H](CO)[C@@H](O)[C@H](O)[C@H]2O)CC1O (some centres undefined)	-0.2	-4.9
Cc1cc(Br)cnc1N=CN(C)C	x	2.4
Cc1nnc(NCc2ccccc2)n(N)c1=O	x	1.9
Cn1ccnc1SCC(=O)N1c2ccccc2C(C)(c2ccc(Cl)cc2)CC1(C)C (centres undefined)	-0.7	17
CC(C)[C@H](NC(=O)[C@H](C)N(C)C)C(=O)N1CC[C@@H]2Oc3ccc(cc3)/C=C\NC(=O)[C@H](Cc3ccccc3)NC(=O)C21 (some centres undefined)	-0.2	1.5
Cc1nc(/N=C(\N)NC(=O)c2ccccc2)nc2ccccc12	-1.1	-9.7
Cc1noc(C)c1S(=O)(=O)Nc1ccc2c(c1)C(=O)N([C@@H](C)CO)C[C@H](C)[C@H](CN(C)Cc1ccc(-c3ccccc3)cc1)O2	0.0	-1.9
COc1ccc(NC(=O)N(C)C[C@@H]2Oc3ccc(NS(=O)(=O)c4ccc(OC)cc4)cc3C(=O)N([C@@H](C)CO)C[C@H]2C)cc1	-0.2	0.1

Next section
structure	A1 inhib	BJeLR viability
C[C@@H]1CN([C@@H](C)CO)C(=O)c2cc(NC(=O)Nc3ccccc3)ccc2O[C@@H]1CN(C)Cc1ccc(Cl)c(Cl)c1	0.0	-2.3
Cc1noc(C)c1NC(=O)N(C)C[C@H]1Oc2c(NC(=O)NC(C)C)cccc2C(=O)N([C@H](C)CO)C[C@@H]1C	x	-4.5
COc1ccc(S(=O)(=O)N(C)C[C@@H]2Oc3c(NS(=O)(=O)c4ccc(C)cc4)cccc3C(=O)N([C@@H](C)CO)C[C@@H]2C)cc1	x	6.2
C[C@H](CO)N1C[C@H](C)[C@@H](CN(C)Cc2ccc(C(=O)O)cc2)Oc2c(NS(=O)(=O)c3cccs3)cccc2C1=O	x	-3.8
CCOC(=O)c1c(C)n(C)c2ccccc12	-0.5	1.8
O=C(Oc1nsnc1N1CCCCC1)N(c1ccccc1)c1ccccc1	-0.2	2.9
COc1ccc(S(=O)(=O)Nc2ccc3c(c2)C(=O)N([C@H](C)CO)C[C@H](C)[C@H](CN(C)C)O3)cc1	0.4	2.6
C=CCOC1=NC2C(C(=O)N(C)C(=O)N2C)N1C (centres undefined)	-0.6	-1.4

(cont.)
structure	A1 inhib	BJeLR viability
S=C1NC2=C(C(c3ccccc3)N1)N1CCC2CC1 (centres undefined)	x	0.5
C[C@H]1CN([C@@H](C)CO)C(=O)c2cccc(NC(=O)C3CC3)c2O[C@@H]1CN(C)C(=O)Nc1cccc2ccccc12	x	-7.2
CC(C)C1CCC2(C)CCC(O)C(C)(O)C2C1OC(=O)/C=C/c1ccccc1 (centres undefined)	-0.3	-2.1
O=C1C=C(NCCc2ccccc2)CC(c2ccco2)C1 (centres undefined)	0.2	-0.1
C[C@@H]1CN([C@H](C)CO)C(=O)c2cc(NS(=O)(=O)c3ccc(F)cc3)ccc2O[C@H]1CN(C)Cc1ccc(Cl)c(Cl)c1	-0.3	-3.1
C[C@@H]1CN([C@@H](C)CO)C(=O)c2cc(NC(=O)CCN3CCOCC3)ccc2O[C@H]1CN(C)C(=O)Nc1ccc(F)cc1	0.1	5.2
C[C@@H]1CN([C@@H](C)CO)C(=O)c2cccc(NS(=O)(=O)c3ccc(Cl)cc3)c2O[C@@H]1CN(C)Cc1ccc2c(c1)OCO2	x	-4.0
CC(Sc1nc(-c2ccccc2)cc(C(F)(F)F)n1)C(=O)NCCCn1ccnc1 (centres undefined)	0.6	-4.3

Next section
structure	A1 inhib	BJeLR viability
O=C(O)C12CC3CC(C1)CC(n1ncc(NCCc4ccccc4)c(Cl)c1=O)(C3)C2	x	1.1
COc1cc2c(cc1OC)C(C)N(S(=O)(=O)c1ccc(-c3ccccn3)s1)CC2 (centres undefined)	-0.4	-5.8
CC(C)(C)NC(=O)C12CC3CCC(CC(C3)C1)C2	0.0	16
C[C@H]1CN([C@@H](C)CO)C(=O)c2cccc(NC(=O)c3nc4ccccc4s3)c2O[C@H]1CN(C)C(=O)NC1CCCCC1	x	-4.5
COc1ccccc1N(CC(=O)NC1CC2CCC1C2)S(=O)(=O)c1ccc(C)cc1 (centres undefined)	-0.2	-3.0
O=C1c2ccccc2C(=O)N1Cc1nc2ccc(Br)cn2c1NC1CCCCC1	x	-1.4
C[C@@H]1CN([C@H](C)CO)C(=O)c2cccc(NS(=O)(=O)c3ccc(Cl)cc3)c2O[C@@H]1CN(C)S(=O)(=O)c1ccc(F)cc1	x	2.8
COc1ccc(NC(=O)Nc2cccc3c2O[C@H](CN(C)S(=O)(=O)c2ccc(OC)cc2)[C@@H](C)CN([C@H](C)CO)C3=O)cc1	x	0.3

Record cards (already shown):
`O=C(O)C12CC3CC(C1)CC(n1ncc(NCCc4ccccc4)c(Cl)c1=O)(C3)C2` as listed: A1 inhib: x; BJeLR viability: 1.1
`COc1ccccc1N(CC(=O)NC1CC2CCC1C2)S(=O)(=O)c1ccc(C)cc1` (centres undefined) as listed: A1 inhib: -0.2; BJeLR viability: -3.0

Later entries
structure	A1 inhib	BJeLR viability
COc1ccc(-c2ccc(Nc3ccc(OC(F)(F)F)cc3)nn2)cc1	0.2	-0.2
CC12CC3(C)CC(C)(C1)CC(C(=O)NC1=NCCS1)(C2)C3	0.6	2.7
CSC1=C(C#N)C(c2ccccc2Cl)C2=C(CCCC2=O)N1 (centres undefined)	0.5	-1.6
C=C(C)c1cccc(C(C)(C)NC(=O)N2CCCC(C(N)=O)C2)c1 (centres undefined)	x	-0.7
CC(O)(CNCc1ccc(Cl)cc1)CSc1ccccc1Cl (centres undefined)	-1.0	-2.2
CC(C)=CCc1c(O)cc2occ(-c3ccc4c(c3)OCO4)c(=O)c2c1O	-5.0	9.7
CCOC(=O)c1ccc(Oc2cc(C)nc(SC)n2)cc1	0.6	17
Cc1cc(C(=O)Nc2cccc3c2O[C@@H](CN(C)C(=O)Nc2ccc4c(c2)OCO4)[C@H](C)CN([C@@H](C)CO)C3=O)n(C)n1	x	-1.4

Next section.
structure	A1 inhib	BJeLR viability
Cc1ccc(S(=O)(=O)Nc2cccc3c2O[C@@H](CN(C)C(=O)Nc2c(C)noc2C)[C@@H](C)CN([C@H](C)CO)C3=O)cc1	x	-5.9
C[C@@H]1CN([C@H](C)CO)C(=O)c2cc(N(C)C)ccc2O[C@H]1CN(C)S(=O)(=O)c1ccccc1	-0.1	-7.4
C[C@H]1CN([C@@H](C)CO)C(=O)c2cc(NC(=O)Nc3ccc(C(F)(F)F)cc3)ccc2O[C@@H]1CN(C)C(=O)Nc1ccc(C(F)(F)F)cc1	-0.4	-1.7
C[C@@H]1CN([C@H](C)CO)C(=O)c2cc(NS(=O)(=O)c3cn(C)cn3)ccc2O[C@H]1CN(C)C	1.1	2.5
C[C@H](CO)N1C[C@H](C)[C@H](CN(C)CC2CC2)Oc2c(cccc2N(C)C)C1=O	x	4.5
Cc1nc2n(Cc3ccccc3)c3ccccc3n2c1C(=S)Nc1ccccc1	0.5	-6.9
COc1ccc(S(=O)(=O)N(C)C[C@@H]2Oc3c(NC(=O)C4CC4)cccc3C(=O)N([C@H](C)CO)C[C@@H]2C)cc1	x	-1.6
CNC[C@@H]1Oc2ccc(NS(=O)(=O)c3ccc(OC)cc3)cc2C(=O)N([C@H](C)CO)C[C@H]1C	-0.1	-1.0

Carrying on:
structure	A1 inhib	BJeLR viability
Cc1noc(C)c1NC(=O)N(C)C[C@H]1Oc2ccc(NS(=O)(=O)c3c(C)noc3C)cc2C(=O)N([C@@H](C)CO)C[C@H]1C	1.3	1.1
Cc1ccc(S(=O)(=O)N(C)C[C@@H]2Oc3c(NS(=O)(=O)c4ccccc4)cccc3C(=O)N([C@@H](C)CO)C[C@H]2C)cc1	x	2.5
COc1cc(/C(C)=C/C(C)O)oc(=O)c1C (centres undefined)	-0.7	0.3
COc1ccccc1-c1nnc(-c2cccs2)o1	-6.7	1.5
Cn1c(SCc2ccc(C(F)(F)F)cc2)nnc1C(F)(F)F	-0.1	-4.4
O=C1N=c2ccccc2=N/C1=N\C(=S)Nc1ccccc1	-0.3	18
CSC1=NC2(CCCCC2)NC2=C1CCCC2	-0.9	-1.2
Cc1ccc(S(=O)(=O)N(C)C[C@@H]2Oc3ccc(NC(=O)CCCN(C)C)cc3C(=O)N([C@H](C)CO)C[C@@H]2C)cc1	0.0	-4.3
COCc1cc(=O)[nH]c(/N=C(\NC(=O)c2ccc(C)cc2)Nc2cccc(Cl)c2)n1	-0.6	0.2
COc1ccc(NC(=O)Nc2cccc3c2O[C@H](CN(C)Cc2ccc(C(=O)O)cc2)[C@H](C)CN([C@@H](C)CO)C3=O)cc1	x	-3.9
